From PubChem BioAssay
PMP22 txn prim – Cell-based coincidence reporter assay to measure PMP22 gene transcription in S16 Pmp22-F2sN cells - Primary screen; S16 Pmp22-F2sN Schwann cells (luciferase reporters placed in the Pmp22 gene), FLuc/NLuc coincidence luminescence, 24 h; 43,000 compounds, 2% hits; Potency, µM (top dose mostly 57.5 µM), for inactives: at the top dose activity change, negative = inhibition, hits mostly inhibitors; active = clear falling dose curves in both reporters; inconclusive = both reporters move, but less clearly or upward; inactive = either reporter flat; the % is the NLuc reporter signal; further: on the % scale 0 is the no-effect control and ±100 the full control effect; some results filed as inactive show a strong effect at the top dose
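Schwann cells carrying the coincidence reporter were exposed to library compounds for 24 h at 37C, then lysed and read for FLuc and, after quenching, NLuc luminescence on a CCD imager.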
HTT promoter inh – Primary qHTS for Identification of Small Molecule Inhibitors of Huntingtin Promoter Activity | 48,000 compounds, 0.93% hits | Potency, µM (series often up to 57.5 µM), inactives show top-dose activity change, negative = inhibition, usual class: inhibitors | AID 1508623, 2021 | HEK293 HTT promoter firefly luciferase reporter (activity 0% = vehicle and -100% = no light), 24 h; active means well fitted inhibition curve with a large enough effect; inconclusive means small, poorly fitted or top-dose-only effect; inactive means no such curve, though single readings can be large or run the other way; further: nearly all actives have a fitted effect of over 50% in size
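Quantitative HTS used concentration series of up to 57.5 uM final on HEK293 luciferase reporter cells, 24 h at 37 degrees C. Readout was Dual-Glo firefly luminescence.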
* marks the source's active call; other numbers are inactive results; u = inconclusive; x = no result given; & = joins results of further samples; [ ] = another dose, or the depositor's remark. Potency means the concentration at half of the fitted maximal effect. Compounds as they come; 2.6% or so of the library scored in one or more.

Start of the listing, in advance:
SMILES	PMP22 txn prim	HTT promoter inh
COc1ccc(-c2cc(C(=O)N3CCN(c4ccccc4OC)CC3)c3cc(C(C)C)ccc3n2)cc1	u	u
O=C(CC1N=C2c3ccccc3N=C(SCC(=O)Nc3ccc(F)cc3)N2C1=O)NCc1ccc2c(c1)OCO2 (centres undefined)	-4%	2%
CCC(=O)N1c2ccccc2CC1C(=O)NCc1cc(Br)ccc1OC (centres undefined)	u	0%
Cc1cc2nn(-c3ccc(F)cc3)nc2cc1NC(=O)c1cccc([N+](=O)[O-])c1C	-6%	30%[activator]
Cc1ccc(Cl)cc1NC(=O)COC(=O)CC(C)(C)CC1=NS(=O)(=O)c2ccccc2N1	u	u
COc1ccc(-c2c3c(nc4sc(C(=O)Nc5ccc(Cl)cc5)c(N)c24)CC(C)(C)CC3=O)cc1	-2%	-19%
COc1ccccc1CNC(=O)CCCn1c(=O)c2ccccc2n(Cc2ccc(C)cc2)c1=O	u	0%
CCOC(=O)c1noc2ncn(CC(=O)Nc3ccc(C)c(F)c3)c(=O)c12	-3%	-9%
Cc1nc2ccccc2n1CC(O)COc1ccc(C(=O)O)cc1 (centres undefined)	10%	-7%
CC[C@H](CC#N)OC(=O)N[C@@H](C)c1cccc(NC(=O)Nc2ccc(-c3cnco3)c(OC)c2)c1	x	u
CCc1cccc(NC(=O)C(Cc2ccccc2)NS(=O)(=O)c2ccc3c(c2)c(=O)n(C)c(=O)n3C)c1 (centres undefined)	-3%	-20%
O=C(NCCc1ccc(Cl)cc1)C(=O)NCC(c1cccs1)S(=O)(=O)c1cccs1 (centres undefined)	-24%	u
Cc1ccc(Cl)cc1NC(=O)c1cnn2c(C(F)F)cc(-c3ccccc3)nc12	-26%	0%

Results, previewed entries included:
SMILES	PMP22 txn prim	HTT promoter inh
COc1ccc(-c2cc(C(=O)N3CCN(c4ccccc4OC)CC3)c3cc(C(C)C)ccc3n2)cc1	u	u
O=C(CC1N=C2c3ccccc3N=C(SCC(=O)Nc3ccc(F)cc3)N2C1=O)NCc1ccc2c(c1)OCO2 (centres undefined)	-4%	2%
CCC(=O)N1c2ccccc2CC1C(=O)NCc1cc(Br)ccc1OC (centres undefined)	u	0%
Cc1cc2nn(-c3ccc(F)cc3)nc2cc1NC(=O)c1cccc([N+](=O)[O-])c1C	-6%	30%[activator]
Cc1ccc(Cl)cc1NC(=O)COC(=O)CC(C)(C)CC1=NS(=O)(=O)c2ccccc2N1	u	u
COc1ccc(-c2c3c(nc4sc(C(=O)Nc5ccc(Cl)cc5)c(N)c24)CC(C)(C)CC3=O)cc1	-2%	-19%
COc1ccccc1CNC(=O)CCCn1c(=O)c2ccccc2n(Cc2ccc(C)cc2)c1=O	u	0%
CCOC(=O)c1noc2ncn(CC(=O)Nc3ccc(C)c(F)c3)c(=O)c12	-3%	-9%
Cc1nc2ccccc2n1CC(O)COc1ccc(C(=O)O)cc1 (centres undefined)	10%	-7%
CC[C@H](CC#N)OC(=O)N[C@@H](C)c1cccc(NC(=O)Nc2ccc(-c3cnco3)c(OC)c2)c1	x	u
CCc1cccc(NC(=O)C(Cc2ccccc2)NS(=O)(=O)c2ccc3c(c2)c(=O)n(C)c(=O)n3C)c1 (centres undefined)	-3%	-20%
O=C(NCCc1ccc(Cl)cc1)C(=O)NCC(c1cccs1)S(=O)(=O)c1cccs1 (centres undefined)	-24%	u

Arranged by length of the SMILES (largest number first): three of the compounds above
SMILES	PMP22 txn prim	HTT promoter inh
COc1ccc(-c2cc(C(=O)N3CCN(c4ccccc4OC)CC3)c3cc(C(C)C)ccc3n2)cc1	u	u
CCC(=O)N1c2ccccc2CC1C(=O)NCc1cc(Br)ccc1OC (centres undefined)	u	0%
Cc1nc2ccccc2n1CC(O)COc1ccc(C(=O)O)cc1 (centres undefined)	10%	-7%

The listing continues.
SMILES	PMP22 txn prim	HTT promoter inh
Cc1ccc(Cl)cc1NC(=O)c1cnn2c(C(F)F)cc(-c3ccccc3)nc12	-26%	0%
COC(=O)c1cc2sccc2n1Cc1ccc(F)cc1	-2%	-26%
O=C(COc1ccccc1-c1nc(-c2ccccc2)no1)Nc1ccc([N+](=O)[O-])cc1	8%	0%
CCC(=O)OC1=CN(Cc2ccccc2)S(=O)(=O)c2ccccc21	u	-10%
Cc1cc(C)cc(NC(=O)N2CCN(C(=O)c3nsc4ccccc34)CC2)c1	3%	-9%
CCOc1ccc(S(=O)(=O)N2CCN(c3ccccc3)CC2)cc1C(N)=O	-12%	-1%
Cc1ccc(NC(=O)C(=O)c2cc(C)n(-c3ccc(F)cc3)c2C)cc1C	u	-24%
O=C(NCCc1ccccc1)c1cnc2sc(N3CCOCC3)nn2c1=O	-9%	16%
COCCn1c(C)cc(O)c(C(c2ccc(Cl)cc2)N2CCCCC2)c1=O (centres undefined)	4%	-12%
Cc1cccn2c(Nc3ccccc3)c(-c3ccc(N4CCOCC4)cc3)nc12	1%	26%
O=C(Nc1ccccc1)c1nc[nH]c1C(=O)O	4%	-14%
COCCNc1nc(NCc2ccccc2OC)c2cnn(C)c2n1	-9%	u
Cc1c(Cl)cccc1NC(=O)N1CCN(Cc2cc(=O)n3nc(-c4ccccc4F)sc3n2)CC1	-24%	-14%
COC(=O)c1sccc1S(=O)(=O)N1CCN(c2ccccc2OC)CC1	-9%	-4%
N#Cc1ccccc1CN1C(=O)c2ccccc2Sc2ccc(C(=O)OCc3ccco3)cc21	-22%	u
CCN(CC)C(=O)N1CCN(C)CC1	x	2%
CCOc1ccc2nc(N3CCC(C(=O)Nc4c(C)cccc4C)CC3)sc2c1	-1%	10%
CCc1c(C)sc2c1CCN(C(=O)Nc1cc(C)ccc1C)C2c1ccc(OC)cc1 (centres undefined)	u	-27%
Cc1ccc(N2C(=O)CSC23C(=O)N(CC(=O)NCCc2ccccc2)c2ccccc23)cc1C (centres undefined)	-14%	u
CC(C)(N)c1ccc(-c2nc3ccccc3nc2-c2ccccc2)cc1	x	-20%
COc1cc(Cl)c(NS(=O)(=O)c2cc3[nH]c(=O)c(=O)[nH]c3cc2C)c(OC)c1	7%	6%
Cc1ccc(S(=O)(=O)c2c(Nc3ccccc3)sc(C(=O)c3ccc4c(c3)OCO4)c2N)cc1	-7%	-28%
CCCN(CCC)CCCNC(=O)C1CCC(CNS(=O)(=O)c2ccc(NC(C)=O)cc2)CC1 (centres undefined)	0%	-2%
CCOc1ccc(S(=O)(=O)c2cc3cccc(OCC)c3oc2=O)cc1	-23%	3%
Cc1oc2c(c(C)cc3oc(=O)c(CC(=O)NCCc4ccccc4F)c(C)c32)c1C	-16%	-3%
CCn1c(=O)c(=O)n(CC)c2cc(N3CCCCC3)c(NC(=O)c3cccc(F)c3)cc21	-16%	-3%
Cc1ccc(N(CC(=O)NCc2ccc(Cl)cc2)S(=O)(=O)N(C)C)cc1	10%	-20%
Cc1ccc(OCC(=O)Nc2ccc(S(=O)(=O)N(Cc3ccccc3)c3ccccc3)cc2)cc1	u	u
O=S(=O)(c1ccc(Cl)cc1)c1nc(-c2ccco2)oc1SCc1ccccc1F	-18%	u
COc1ccc(NC(=O)Cn2c(=O)n(CC(=O)NCCc3ccccc3)c(=O)c3ccccc32)cc1	-5%	2%
COc1ccc(-c2nc3ccccc3o2)cc1NC(=O)Cc1ccc(Cl)cc1	u	25%
O=C(CSc1nc2c(sc3ccccc32)c(=O)n1CCCC(=O)NC1CCCC1)Nc1ccc(F)cc1	u	-14%
Cc1ccccc1CNC(=O)CN1C(=O)C2CCCCN2c2ccc(C(=O)N3CCCC3)cc21 (centres undefined)	-4%	-8%
O=C1CCCc2cc(S(=O)(=O)N3CCCC(C(=O)NCc4ccccc4)C3)ccc2N1 (centres undefined)	-43%	-31%
CCc1cccc(NC(=O)CSc2ncc3c(n2)-c2cc(Cl)ccc2N(C)S3(=O)=O)c1	u	-14%
Cc1ccc(C)c(OC(=O)CSc2nnc(-c3ccc4c(c3)OCO4)o2)c1	-5%	8%
O=C(CCc1ccccc1)NCCc1csc(-c2cccc(F)c2)n1	u	-26%
O=C(Nc1cccc(C(=O)N2CCN(c3cccc(Cl)c3)CC2)c1)c1nsc2ccccc12	u	-6%
CCOc1ccccc1N(C)C(=O)NCc1noc2ccccc12	12%	-11%
Cc1cc(C)cc(NC(=O)c2cc(S(=O)(=O)NCCC3=CCCCC3)ccc2F)c1	-5%	-14%
COCCCNC(=O)c1ccc2c(c1)nc1n2CCCCC1	-10%	44%[activator]
COc1ccc(-n2nnnc2C2CCN(S(=O)(=O)c3cccc(C(F)(F)F)c3)CC2)cc1	-5%	-11%
Cc1cc(C)c(NC(=O)CN2C(=O)CCSc3ccc(S(=O)(=O)N4CCCC4)cc32)c(C)c1	-2%	-25%
O=C(Cn1cc(S(=O)(=O)Cc2ccccc2Cl)c2ccccc21)NCCc1ccccc1	-21%	-15%
O=C(Nc1nnc(S(=O)(=O)N2CCCc3ccccc32)s1)c1ccccc1	-12%	u
O=C(CN1CCSc2ccccc21)N1CCN(c2cccc(Cl)c2)CC1	u	-33%
Cc1ccc(NC(=O)Cn2c(=O)c(CNc3ccccc3)cc3cc4c(cc32)OCCO4)cc1	u	-34%
COc1ccc(-c2nnc(SCC(=O)c3ccc(NC(C)=O)cc3)o2)cc1OC	14%	2%
O=C(CCCCCn1c(=O)[nH]c2ccccc2c1=O)NCCc1ccccc1	-72%	-18%
Cc1cccc(N2CCN(C(=O)c3ccc4c(Cl)c5c(nc4c3)CCCC5)CC2C)c1 (centres undefined)	-12%	-5%
NC(=O)NS(=O)(=O)c1ccc(Cl)cc1	x	5%
COc1ccc(OC)c(NC(=O)Cn2cnc3c(oc4ccccc43)c2=O)c1	u	15%
Cc1ccc(-n2cc(-c3ccccc3)c3c(N4CCCCC4)ncnc32)cc1	-1%	u
CCN(CC)C(=O)c1sc2c(c1C)c(=O)n(CCc1ccccc1)c(=O)n2Cc1cccc(Cl)c1	u	u
Cc1nc(-n2nc(C)c(Cc3ccc(Cl)cc3)c2C)sc1C(=O)N1CCC(C)CC1	-18%	-4%
Cc1ccc(OCC(=O)Nc2nnc(SCc3cc(=O)c4ccccc4[nH]3)s2)cc1C	-1%	7%
COC(=O)c1cc2oc3ccccc3c2n1Cc1c(C)cc(C)cc1C	-4%	-21%
O=C(Cn1cnc(S(=O)(=O)N2CCCC2)c1)Nc1cccc(Br)c1	u	u
Cc1ccc(NS(=O)(=O)c2ccc3c(c2)CC(=O)N3)cc1Cl	-13%	-18%
COc1ccc(NC(=O)C(=O)NCCc2ccccc2)cc1OC	u	-3%
Additional records
SMILES	PMP22 txn prim	HTT promoter inh
COc1ccccc1NC(=O)c1oc2ccccc2c1NC(=O)COc1cccc(C)c1	-12%	-2%
Cc1ccc(NC(=O)Cn2c(=O)n(CCCC(=O)NCc3ccc4c(c3)OCO4)c(=O)c3ccccc32)cc1	u	-9%
Cc1ccc(-n2c(Cc3ccccc3)nnc2SCc2nc(-c3cccs3)no2)cc1	u	-26%
O=C(Nc1ccc2oc(-c3cccnc3)nc2c1)c1ccc(Br)cc1	u	-26%
COc1ccc(C)cc1NC(=O)NCc1cccn1Cc1ccccc1	-15%	-7%
Cc1cccc(Cn2c(CNS(=O)(=O)c3ccc(Cl)s3)nc3cccnc32)c1	u	-20%
Cc1ccc2c(CC(=O)Nc3cccc(C(F)(F)F)c3)coc2c1	-23%	-27%
CCC(=O)Oc1ccc(/C=C(\C#N)c2nc3ccccc3[nH]2)cc1OC	u	16%
Cc1cnc(NC(=O)C2=C(O)c3ccccc3S(=O)(=O)N2C)s1	x	47%&21%[activator]
CC(=O)N1CCC2(CC1)OC(=O)C(C)=C2C(=O)Nc1ccccc1C(F)(F)F	-3%	-13%
COc1ccc(OC)c(NS(=O)(=O)c2ccc(-c3cc(C)no3)s2)c1	u	u
Cc1cccc(CSc2nc3ccncc3n2CC(=O)N(C)C2CCCCC2)c1	u	u
CC(C)CCNC(=O)CCn1c(=O)c2cccn2c2cccnc21	2%	3%
Cc1ccc(NS(=O)(=O)c2ccc(-c3cnc(C4CC4)o3)cc2)cc1N(C)C	-53%	u
O=C(NC1CCCCCC1)c1ccc(CS(=O)c2ccc(Br)cc2)o1 (centres undefined)	-37%	-32%
CC(=O)c1cccc(NC(=O)C(CC(C)C)NS(=O)(=O)c2ccc3c(c2)CCN3C(C)=O)c1 (centres undefined)	2%	-16%
CCCN(CCC)C(=O)Cn1c(SCc2cccc(F)c2)nc2cccnc21	-9%	-11%
CC(=O)c1ccc(NC(=O)Cn2nc(C(F)(F)F)c3c2CCCC3)cc1	-50%	-16%
Cc1ccccc1Cn1c2ccccc2c2cnn(CC(=O)NCCCc3ccccc3)c(=O)c21	u	10%
COc1cccc(Cn2c(CNS(=O)(=O)c3ccc(F)c(Cl)c3)nc3cccnc32)c1	-25%	-23%
COc1cc2[nH]c(=O)n(Cc3ccc(C(=O)NCc4ccccc4)cc3)c(=O)c2cc1OC	u	-13%
Clc1cccc(-c2nc3ccccn3c2Nc2ccc3c(c2)OCCO3)c1	-41%	7%
COc1ccc(S(=O)(=O)NCCc2csc3nc(-c4cccc(C)c4)nn23)cc1F	u	u
Cc1nc2c(C(=O)NCCc3ccc(Cl)cc3)cnn2c(C)c1Cc1c(F)cccc1Cl	-20%	-1%
CCOC(=O)c1c(S(=O)(=O)NCC(=O)Nc2ccc(C)c(N(C)C)c2)c(C)n(C)c1C	3%	7%
COc1ccc(-n2nnc(-c3nc(-c4ccc5c(c4)OCO5)no3)c2C)cc1Cl	-6%	-2%
